FGF22 binding: FGF22 (human) thermal shift binding. recombinant FGF22 thermal shift, SYPRO orange fluorescence; percent of sucrose octasulfate shift, DMSO zero. AID 651658. calls only at 9.99 µM. 340,000 tested, 1.5% active;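 active = melting point raised past a set limit in the mean and every replicate; inconclusive = no clear call; three in four hits are not shown here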
Target sequence (Q9HCT0 whole entry, looked up): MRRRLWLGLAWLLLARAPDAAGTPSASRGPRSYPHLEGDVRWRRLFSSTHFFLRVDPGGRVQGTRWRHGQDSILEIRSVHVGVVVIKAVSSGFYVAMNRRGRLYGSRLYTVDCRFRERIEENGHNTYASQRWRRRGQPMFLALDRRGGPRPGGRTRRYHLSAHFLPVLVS
MLL AF4-AF9 inh: inhibitors of human MLL-AF4/AF9 interaction; inhibition, % at 10 µM; AlphaScreen, biotin-AF4 peptide binding to FLAG-AF9; 350,000 tested, 0.47% active; AID 651704;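 active = every replicate reaching a set inhibition limit, whatever the replicate mean, cut at about 25% in these data; inconclusive = mean inhibition reaches that limit but some replicates miss it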;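 note: 0% = plate neutral control median and 100% = total signal loss; the record names both 10 and 1 µM as test concentration; the first replicate is given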
Target sequence (P42568 whole entry, looked up): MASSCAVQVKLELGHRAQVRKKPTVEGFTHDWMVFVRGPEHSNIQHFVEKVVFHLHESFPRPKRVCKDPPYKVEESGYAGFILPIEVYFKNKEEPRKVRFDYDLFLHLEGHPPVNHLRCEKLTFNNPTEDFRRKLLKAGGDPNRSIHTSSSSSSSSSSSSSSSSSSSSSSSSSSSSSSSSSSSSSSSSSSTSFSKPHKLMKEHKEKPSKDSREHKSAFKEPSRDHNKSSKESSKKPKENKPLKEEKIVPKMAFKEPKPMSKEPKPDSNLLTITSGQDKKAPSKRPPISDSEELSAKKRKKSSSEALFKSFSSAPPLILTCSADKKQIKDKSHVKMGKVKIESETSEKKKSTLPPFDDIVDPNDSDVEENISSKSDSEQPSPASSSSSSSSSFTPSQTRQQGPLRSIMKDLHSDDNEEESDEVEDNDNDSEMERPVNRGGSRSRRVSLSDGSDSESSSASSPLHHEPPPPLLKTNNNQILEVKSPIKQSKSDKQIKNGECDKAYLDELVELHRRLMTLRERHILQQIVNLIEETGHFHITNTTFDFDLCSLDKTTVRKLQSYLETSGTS
UCH37 inh: human UCH37 deubiquitinating enzyme inhibition | Q9Y5K5 | purified proteasome/UCH37, Ub-AMC cleavage fluorescence | inhibition, % (concentration not given with the values) | 330,000 tested, 0.33% active | AID 588478;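 active = mean of two replicates above 20%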;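 note: 0% = compound-free wells with enzyme and 100% = wells lacking proteasome; stock transfer was 100 nL into about 20 µL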
Target sequence (Q9Y5K5 whole entry, looked up): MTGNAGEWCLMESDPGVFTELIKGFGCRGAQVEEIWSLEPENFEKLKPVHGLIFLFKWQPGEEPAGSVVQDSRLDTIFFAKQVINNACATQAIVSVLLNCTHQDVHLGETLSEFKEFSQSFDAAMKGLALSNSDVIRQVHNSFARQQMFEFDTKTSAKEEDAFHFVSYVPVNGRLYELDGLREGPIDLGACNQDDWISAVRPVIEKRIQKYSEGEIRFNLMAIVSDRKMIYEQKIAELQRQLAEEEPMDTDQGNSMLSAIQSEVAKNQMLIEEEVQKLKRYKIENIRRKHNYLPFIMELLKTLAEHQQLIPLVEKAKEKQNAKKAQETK
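Material: Human UCH37 enzyme supplied as purified proteasome complex | Schedule: 30 min compound-proteasome preincubation then 25 min substrate reaction, room temperature | Detection: AMC fluorescence from Ub-AMC cleavage, excitation 355 nm, emission 460 nm | Benchmarks: Wells without proteasome as full block, compound-free enzyme plus substrate as uninhibited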
T cruzi inh: T. cruzi replication inhibition. T. cruzi beta-gal in NIH3T3, luminescence, 90 h. inhibition, % (concentration not given with the values). 300,000 tested, 1.4% active. AID 1885;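 active = mean inhibition across valid replicates above about 55%, limit read from the data; inconclusive = mean below that limit but half or more replicates reach it; inactive = mean below it, under half of replicates reach it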;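 note: signal also drops with host cell toxicity which is not excluded here; 0% = plate median of DMSO wells and 100% = zero luminescence signal; higher percent means less beta-gal luminescence so fewer parasites; stock transfer was 50 nL into about 50 µL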
Beta cell apopt: blocks beta cell apoptosis; INS-1E cytokine-induced death, ATP luminescence, 48 h; percent of positive-control rescue, neutral wells zero; protection from apoptosis, % (concentration not given with the values); 300,000 tested, 0.8% active;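 active = all replicates at 75% or more, or half of them and the mean; inconclusive = half reach 75% but not the mean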;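 note: 0% = cytokine-treated negative control wells and 100% = positive control rescue; higher means more ATP so stronger rescue from cytokine killing; wells of about 40 µL received 100 nL stock; the first replicate is given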
E coli growth: E. coli growth inhibition; Escherichia coli growth, OD600, 23 h; active compounds read low; OD600 absorbance (test concentration not listed); 330,000 tested, 0.21% active; AID 1053175;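 active = OD600 absorbance below the run mean of sample wells minus 3.6 SD, in any replicate, cut at about 0.56 in these data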;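 note: stock transfer was 300 nL into about 60 µL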
A1 inh: inhibitors of the anti-apoptotic protein A1, read as caspase activation | 330,000 tested, 0.066% active | MEF A1-2A-BIM cells, Caspase-Glo 3/7 luminescence, 3 h; percent of clofoctol response, vehicle zero | caspase activation, % (test concentration not listed);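 active = over half of replicate activation scores above 10%, or exactly half above 10 with the replicate mean above 10; inconclusive = replicate mean below 10 yet half the replicates above 10; inactive = over half of replicates below 10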;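 note: wells of about 30 µL received 50 nL stock; many hits fall short of the cut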
rRNA inh HTS: selective bacterial rRNA inhibition in E. coli | E. coli WT GFP vs humanized-ribosome RFP mutants, fluorescence, 24 h; active compounds read low; DMSO median 0, no signal -100 | GFP signal change (wild-type ribosome), % (concentration not given with the values) | 350,000 tested, 1.6% active;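 active = significant combined selectivity score with lowered wild-type GFP, culture density cut under 30%, mutant RFP and density less affected; inactive = any of these conditions unmet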; note: one replicate is shown; some compounds called inactive have numbers as strong as hits
rRNA inh HTS OD600: second read-out of rRNA inh HTS, no call of its own (marks repeat the call); OD600 change, %; measured here: OD600 growth;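 optical density of the mix in the first replicate; 0 = DMSO median and -100 = no signal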
rRNA inh HTS RFP: recorded beside rRNA inh HTS, whose call it bears; RFP signal change, %; measured here: RFP humanized mutant strains;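 first replicate; 0 = DMSO median and -100 = no signal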
* marks the source's active call; other numbers are inactive results; i = inactive; ? = inconclusive; / = no result given; + = active, no number.

SMILES | FGF22 binding | MLL AF4-AF9 inh | UCH37 inh | T cruzi inh | Beta cell apopt | E coli growth | A1 inh | rRNA inh HTS | rRNA inh HTS OD600 | rRNA inh HTS RFP
COc1ccc(OC)c(NC(=O)C(=O)N/N=C(\C)CC(=O)Nc2ccc(Cl)cn2)c1 | i | 0.7 | / | -1 | -3 | / | 0.2 | 0 | 2 | -1.4
CCc1cc(=O)oc2cc(OCC(=O)N(CC)CC)c(Cl)cc12 | i | -3.1 | -7.0 | 1 | 0 | 0.74 | 0.2 | -14 | -12 | 1.7
CCOC(=O)C1CCN(C(=O)CNC(=O)c2nn(-c3ccc(OC)c(OC)c3)c(=O)c3ccccc23)CC1 | i | -0.2 | 3.5 | -7 | -3 | 0.67 | 2.2 | -4 | -3 | 1.6
COc1ccc(NC(=O)CCc2nnc3ccc(N4CCC(C)CC4)nn23)cc1 | i | -4.6 | 4.2 | -13 | -5 | 0.7 | -0.5 | -3 | -2 | -0.3
c1ccc(-n2cnnc2SCc2cn3cccnc3n2)cc1 | / | / | -323 | -24 | 4 | 0.7 | 0.1 | / | / | /
O=C1/C(=C/c2ccncc2)SC(=S)N1Nc1ccccc1 | i | / | 6.1 | 0 | 32 | 0.63 | 0.1 | 2 | 7 | 33
O=C(O)c1cc(S(=O)(=O)N2CCCCC2)sc1Cl | i | -1.2 | -1.0 | -7 | -2 | 0.64 | 0.5 | 0 | 4 | 1.3
CC(OC(=O)CN1C(=O)c2ccccc2C1=O)C(=O)NC1CCCCC1 (centres undefined) | i | -1.3 | / | -6 | -3 | / | 0.1 | -54 | -78 | -16
Cc1cc(C)c(N(C(=O)Cn2nnc3ccccc32)C(C(=O)NC(C)(C)C)c2ccsc2)c(C)c1 (centres undefined) | / | / | 0.8 | 45 | 0 | 0.69 | -0.3 | / | / | /
O=C(O)c1ccc2cccnc2c1O | i | -2.7 | 0.7 | 2 | 3 | 0.67 | 0.5 | 6 | 7 | 1.3
CC(=O)Nc1ccccc1/C=C/c1ccc2c(C)ccc(O)c2n1 | i | 0.0 | 6.4 | -2 | -5 | 0.69 | 0.4 | / | / | /
COc1cc2c(cc1OC)C(C)N(CC(=O)Nc1ccc(S(=O)(=O)N3CCCC3)cc1)CC2 (centres undefined) | i | 7.3 | -16 | 8 | -5 | 0.66 | 0.3 | -2 | -1 | 1.4
CC(C)NC(=O)Cn1c(SCC(=O)c2ccc(F)cc2)nc2ccccc21 | / | / | 1.5 | -3 | 4 | 0.67 | 0.3 | / | / | /
Cc1ccc(NC(=O)C(C)OC(=O)c2nc(Cl)ccc2Cl)cc1S(=O)(=O)N1CCOCC1 (centres undefined) | i | 3.3 | 1.4 | / | / | 0.7 | / | -9 | -21 | 2.6
O=C(COc1ccc(S(=O)(=O)N2CCCC2)cc1)N1CCCCC1 | i | -0.9 | 4.0 | 2 | / | 0.69 | -1.6 | 3 | 7 | -1.2
O=S(=O)(c1cccs1)N1CCC(CO)(Cc2ccc(Cl)cc2)CC1 | i | -6.0 | 1.0 | 3 | 2 | 0.66 | 0.8 | -57 | -76 | -27
CCOc1ccc(CCNC(=O)C2CCN(S(=O)(=O)CC)CC2)cc1OCC | / | / | 2.1 | -3 | 1 | 0.68 | -0.2 | / | / | /
Oc1c(C(c2ccc(F)cc2)N2CCc3ccccc3C2)sc2ncnn12 (centres undefined) | i | -1.0 | 1.4 | 2 | -6 | 0.73 | -0.9 | 8 | 9 | -4.4
Cc1cccc(NC(=O)COc2coc(CN3CCc4ccccc4C3)cc2=O)c1 | + | -0.9 | 0.6 | 2 | / | 0.66 | 1.0 | 1 | -2 | -0.1
CC1Cc2ccccc2N1C(=O)CSc1nn2c(=O)c(C(C)(C)C)nnc2s1 (centres undefined) | i | 1.9 | 1.3 | 8 | -10 | 0.69 | -1.1 | -12 | 16 | -0.8
O=C(C[C@@H]1C/C=C/CC[C@@H](Cc2ccc(F)cc2)C(=O)OC[C@H](Cc2ccccc2)NC1=O)N[C@H](CO)Cc1ccccc1 | i | -1.8 | -1.9 | / | 6 | / | 0.1 | 6 | -4 | 2.1
Cc1cc(=O)n2c3ccccc3n(CC(O)CN3CCOCC3)c2c1C#N (centres undefined) | i | -1.5 | -16 | -1 | 3 | 0.69 | -0.2 | 10 | 7 | -10
O=C(COc1cc2oc(=O)c3c(c2cc1Cl)CCC3)Nc1cccnc1 | i | 1.2 | -16 | 6 | -4 | 0.68 | -1.6 | 2 | 6 | -2.1
FC(F)(F)c1nc2ccccc2c2nc3ccccc3n12 | i | -4.3 | 1.4 | -14 | 1 | 0.7 | -0.1 | 2 | 0 | 0.9
Cc1ccc(-n2nc(-c3ccco3)cc2C(=O)O)cc1 | i | 0.3 | -1.5 | 4 | -2 | 0.73 | 0.1 | 18 | 5 | 4.4
Cc1cc2cc(C(c3nnnn3Cc3ccco3)N3CCc4ccccc4C3)c(=O)[nH]c2cc1C (centres undefined) | / | / | -7.7 | 18 | -13 | 0.7 | 0.0 | / | / | /
N/N=C(\c1ccccc1)C12CN3CN(CN(C3)C1)C2 | i | 4.8 | / | -14 | 1 | / | 0.4 | 2 | 4 | -0.8
CCOC(=O)C1(Cc2cccc(OC)c2)CCN(Cc2cccc(OC)c2OC)CC1 | i | 4.4 | 3.2 | 26 | / | 0.65 | 0.2 | -26 | -32 | -0.8
C=CCC1(CC=C)CCCN1C(=O)c1cc(COc2ccc(F)c(F)c2)on1 | i | -12 | 1.6 | 39 | 8 | 0.61 | -0.3 | -2 | -21 | 5.2
O=S(=O)(Nc1ccc(Cc2ccncc2)cc1)c1ccc(Br)cc1 | / | / | 2.8 | -13 | 7 | 0.69 | 0.8 | / | / | /

Whole records, looked up by structure. Values in the order: FGF22 binding | MLL AF4-AF9 inh | UCH37 inh | T cruzi inh | Beta cell apopt | E coli growth | A1 inh | rRNA inh HTS | rRNA inh HTS OD600 | rRNA inh HTS RFP
O=C(COc1cc2oc(=O)c3c(c2cc1Cl)CCC3)Nc1cccnc1 is entered as i | 1.2 | -16 | 6 | -4 | 0.68 | -1.6 | 2 | 6 | -2.1
N/N=C(\c1ccccc1)C12CN3CN(CN(C3)C1)C2 is entered as i | 4.8 | / | -14 | 1 | / | 0.4 | 2 | 4 | -0.8
O=S(=O)(Nc1ccc(Cc2ccncc2)cc1)c1ccc(Br)cc1 is entered as / | / | 2.8 | -13 | 7 | 0.69 | 0.8 | / | / | /
CCOC(=O)C1(Cc2cccc(OC)c2)CCN(Cc2cccc(OC)c2OC)CC1 is entered as i | 4.4 | 3.2 | 26 | / | 0.65 | 0.2 | -26 | -32 | -0.8

(more compounds)
SMILES | FGF22 binding | MLL AF4-AF9 inh | UCH37 inh | T cruzi inh | Beta cell apopt | E coli growth | A1 inh | rRNA inh HTS | rRNA inh HTS OD600 | rRNA inh HTS RFP
Cc1cc(S(=O)(=O)N2CCN(CC(=O)NC(C)(C#N)C3CC3)CC2)ccc1Br (centres undefined) | i | -23 | 0.9 | / | / | 0.72 | / | 0 | 2 | 0.7
O=c1[nH][nH]c(C(F)(F)F)c1C=Nc1ccccc1Cl | / | / | 5.3 | 0 | -7 | 0.7 | 0.3 | / | / | /
COc1cc2c(cc1OC)CN(S(=O)(=O)c1cccs1)CC2 | / | / | -2.2 | 0 | -10 | 0.7 | -0.2 | / | / | /
CCc1c(C(=O)NNC(=S)Nc2ccc(S(=O)(=O)Nc3ncccn3)cc2)csc1C | i | -12 | 4.9 | 3 | 0 | 0.66 | 0.7 | -3 | -12 | 1.0
CC(C(=O)NCCCc1ccccc1)n1cccc1C(=O)c1ccccc1 (centres undefined) | i | 0.8 | 3.2 | 16 | -5 | 0.69 | 0.1 | -6 | -22 | 1.1
CCCC(=O)Nc1c(C(=O)OCC)oc2ccccc12 | i | 0.7 | 2.6 | -8 | -8 | 0.71 | -0.2 | -7 | -21 | -3.6
CC(=O)Nc1ccccc1NC(=O)C/C(C)=N/NC(=O)c1ccccn1 | i | -2.8 | / | -34 | 7 | / | 0.4 | 10 | 9 | -0.6
CCOC(=O)N1CCN(C(=O)c2ccc3c(=O)n(-c4ccc(OC)cc4OC)c(=S)[nH]c3c2)CC1 | / | / | 4.2 | 3 | -2 | 0.76 | -0.4 | / | / | /
COc1ccc(CC(NC(C)=O)C(=O)NC2CCN(C(=O)C3CC3)CC2)cc1OC (centres undefined) | i | -2.1 | -3.3 | -1 | / | 0.65 | 1.6 | 16 | 10 | 1.9
C/C=C(/C)C(=O)O[C@@H]([C@H](O)c1cc2ccc(=O)oc2cc1OC)C(C)(C)O[C@@H]1O[C@H](CO)[C@@H](O)[C@H](O)[C@H]1O | i | -3.8 | -34 | / | 6 | / | 1.9 | 9 | 11 | 0.7
O=C(Cn1cc(C(=O)c2ccco2)c2ccccc21)Nc1ccccc1 | / | / | 1.0 | 6 | 0 | 0.65 | -0.3 | / | / | /
Cc1nnc2ccc(N3CCN(c4ccccn4)CC3)nn12 | i | 0.1 | 6.6 | 0 | / | 0.74 | -0.4 | -4 | 1 | 0.8
Cc1oc(/N=C/c2ccc(O)cc2O)c(C#N)c1C | i | 2.8 | / | -3 | -11 | / | -4.3 | 12 | 9 | 3.3
COC(=O)c1cc(COc2ccc3ccc(=O)oc3c2)c(C)o1 | / | -1.3 | -37 | -15 | -1 | 0.7 | -0.8 | / | / | /
CCOCCCNC(=O)CSc1nc2nc(C)c(Cc3ccccc3)c(C)n2n1 | i | -21 | -0.3 | -13 | -8 | 0.71 | -0.7 | 2 | 6 | 2.0
CN(C)CCN1C(=O)C(=O)/C(=C(/O)c2ccc(S(=O)(=O)N3CCOCC3)cc2)C1c1ccc(Br)cc1 (centres undefined) | i | -17 | 9.9 | -6 | -5 | 0.72 | 1.1 | 8 | 28 | 2.4
Cc1ccc(NS(=O)(=O)c2c(C)nc3sccn3c2=O)cc1 | i | -1.1 | 3.3 | 14 | 1 | 0.71 | 0.1 | -4 | -1 | -0.9
CC(C)NC(=O)NNC(=O)c1cc(COc2cc(Cl)cc(Cl)c2)on1 | i | 0.6 | -0.3 | -2 | -2 | 0.68 | 0.6 | 3 | 6 | 2.8
Clc1ccc(C=Cc2ccccn2)c(Cl)c1 | i | 2.6 | 0.0 | / | / | 0.63 | / | -61 | -79 | -19
O=C(O)C1CCCCC1C(=O)NCc1ccc2c(c1)OCO2 (centres undefined) | i | -14 | -0.4 | -22 | -2 | 0.69 | 0.8 | 8 | 10 | -4.0
Cc1ccc(NC(=O)CCS(=O)(=O)c2cccc3nonc23)cc1Cl | i | ? | 2.6 | 2 | -3 | 0.64 | -0.6 | 9 | -1 | -0.2
Clc1cccc(Cl)c1CNc1ccc(N2CCCC2)cc1 | i | 18 | 1.3 | ? | -1 | 0.73 | -0.7 | -4 | 0 | 12
COc1ccc(/C=N/N=C2/NC(=O)C(CC(=O)O)S2)cc1OCc1ccc(Cl)cc1Cl (centres undefined) | i | 1.6 | / | 20 | -4 | / | -0.4 | 9 | 24 | 6.3
O=[N+]([O-])c1ccc(Cl)c(CN2CCCCCC2)c1 | i | 8.8 | 3.4 | 4 | -1 | 0.58 | -1.5 | 7 | 5 | 0.4

Screening data deposited in PubChem BioAssay by several laboratories.

A portion of the library; the hit share may differ from the screen's.
